High-throughput results as filed in PubChem.
HSD17B inhib: inhibitors of human HSD17B10 dehydrogenase; Potency, µM (highest dose often 57.1 µM), without a hit: at the top dose activity change, negative = inhibition, hits mostly inhibitors; hit rate 7.6% among 75,000; Q99714; AID 893; recombinant HSD17B10, NADH fluorescence kinetic; many of its hits are not listed in these tables; active means well fitted inhibition curve with a large enough effect; inconclusive means small, poorly fitted or top-dose-only effect; inactive means no such curve, though single readings can be large or run the other way;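 further: the protocol describes HADH2 (HSD17B10) and not the HSD17B4 of the title; nearly all actives have a fitted effect of over 70% in size; most hits overshoot -100% by far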
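His-tagged E. coli-expressed HADH2 at 20 nM in 100 mM Tris-HCl pH 9.0 with 0.01 % Tween-20, preincubated 15 min with compound at room temperature. Reaction with 1 mM NAD+ and 90 uM beta-hydroxybutyryl coenzyme A; NADH fluorescence (360/450 nm) read kinetically over 4 min, last minus first point.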
Active calls of the source: *; ? = inconclusive; [ ] = remark or other dose. On the % scale 0 is the no-effect control and ±100 the full control effect; potency means the concentration at half of the fitted maximal effect.

structure,HSD17B inhib
COc1ccc(CNC(=O)c2cc(-c3ccc(OC)c(OC)c3)on2)cc1,12%
O=C(Oc1ccccc1)N1CCC2(CCCN(c3ccccc3)C2)CC1,-3%
COc1ccc(OC)c(C(c2nnnn2Cc2ccccc2)N2CCN(C)CC2)c1 (stereo unspecified),5%
CCCC(=O)Nc1ccc2oc(-c3cccnc3)nc2c1,25µM*
COC(=O)c1ccc(/C=N/n2cnnc2)cc1,-5%
Cn1c(SCC(=O)NCc2ccco2)nnc1-c1cccs1,5%
O=C(c1ccco1)N1CCC(c2ccccc2)C1 (stereo unspecified),-4%
O=C(CCCn1c(=O)[nH]c2ccsc2c1=O)N1CCN(c2ccccn2)CC1,?
CCOc1ccccc1NC(=O)CCn1c(=O)oc2ccccc21,0%
CCOC(=O)N1CCN(C(=O)c2cnn3c(C(F)F)cc(-c4ccc(C)cc4)nc23)CC1,?
N#CCCN1CCN(C(=S)c2ccc(-c3cccc(Cl)c3)o2)CC1,-19%
CCc1ccccc1N(CC(=O)NCCSCc1ccco1)S(C)(=O)=O,?
O=C(OCn1nnc2ccccc2c1=O)C1CCCCC1,-5%
N#Cc1cccc2cnccc12,2%
COc1ncc2nc(-c3ccc(F)cc3)c(=O)n(C3CC3)c2n1,-12%
O=C1CSC(c2ccccc2F)N1CCN1CCCCC1 (stereo unspecified),2%
COc1ccc2ncn(-c3ccccc3)c2c1,-2%
COc1cccc(C(C(=O)NCc2ccco2)N(C(=O)Cn2nnc3ccccc32)C2CC2)c1OC (stereo unspecified),-10%
Cc1nc(N)sc1-c1csc(Nc2ccc(Cl)cn2)n1,-7%
Cc1cnc(CNc2ncncc2-c2ccccc2CN(C)C)cn1,-16%
Cc1ccc(-n2c(=O)c3sccc3n(CC(=O)N3CCCC3)c2=O)cc1,2%
Cc1ccc(Cn2ccc(NC(=O)C3C4CCC(C4)C3C(=O)O)n2)cc1 (stereo unspecified),-3%
CCc1nc(Nc2ccc3nccnc3c2)c2oc3ccccc3c2n1,13µM*
COc1ccc(CCNC(=O)C2CCN(S(=O)(=O)c3cccc4nonc34)CC2)cc1OC,11%
O=C(NC1CCCCCC1)C1CCN(c2nc3ccccc3o2)CC1,0%
CC(C)Oc1ccc(CNCC2(O)CCOC(C)(C)C2)cc1 (stereo unspecified),-15%
O=C(Cn1nnc(-c2ccccc2NC(=O)c2ccco2)n1)Nc1ccccc1,32µM*
COc1ccc(C(=O)Nc2cc(=O)n(C)c(=O)n2C)cc1OC,8%
CCOC(=O)C1=C(C)NC(=O)NC1c1ccc(C)o1 (stereo unspecified),-3%
Cc1ccc(S(=O)(=O)N2CC(=O)Nc3ccccc32)cc1C,90%[activator]

Compounds shown so far containing sulfur, in the order listed:
structure,HSD17B inhib
Cn1c(SCC(=O)NCc2ccco2)nnc1-c1cccs1,5%
O=C(CCCn1c(=O)[nH]c2ccsc2c1=O)N1CCN(c2ccccn2)CC1,?
N#CCCN1CCN(C(=S)c2ccc(-c3cccc(Cl)c3)o2)CC1,-19%
CCc1ccccc1N(CC(=O)NCCSCc1ccco1)S(C)(=O)=O,?
O=C1CSC(c2ccccc2F)N1CCN1CCCCC1 (stereo unspecified),2%
Cc1nc(N)sc1-c1csc(Nc2ccc(Cl)cn2)n1,-7%
Cc1ccc(-n2c(=O)c3sccc3n(CC(=O)N3CCCC3)c2=O)cc1,2%
COc1ccc(CCNC(=O)C2CCN(S(=O)(=O)c3cccc4nonc34)CC2)cc1OC,11%
Cc1ccc(S(=O)(=O)N2CC(=O)Nc3ccccc32)cc1C,90%[activator]

Further results
structure,HSD17B inhib
O=C(NCc1ccco1)C1CCN(c2nc3ccccc3n2Cc2ccc(F)cc2)CC1,-8%
CCc1ccccc1NC1c2ccccc2C(=O)N1Cc1ccco1 (stereo unspecified),-25%
Nn1c(SCC(=O)NC2CCCCC2)nnc1C1CC1,2%
COc1ccccc1C(O)P(=O)(OC(C)C)c1ccc(N(C)C)cc1 (stereo unspecified),-6%
COc1ccc(OC)c(NC(=O)Cn2cnc3c(cnn3-c3ccccc3)c2=O)c1,9%
N=P(N1CCOCC1)(N1CCOCC1)C12CC3CC(CC(C3)C1)C2,5%
Nc1nc(SCCc2ccccc2)c2[nH]cnc2n1,?
C=CCOC(=O)CCCC(=O)NC1CCCCC1,1%
Cc1ccc(S(=O)(=O)N2CC(O)CC2C(=O)Nc2ccc3c(c2)CCC3)cc1 (stereo unspecified),-8%
C=CCN1C(=O)CSC1=Nc1cccc(O)c1,-4%
COc1ccccc1Oc1ccc(S(=O)(=O)N2CCOCC2)cc1S(=O)(=O)N1CCOCC1,6%
COc1ccc(NS(=O)(=O)c2ccc(NC(=O)C3CCCO3)cc2)cc1 (stereo unspecified),-5%
Cc1nc2sc(C(c3ccc(C(C)C)cc3)N3CCN(CCO)CC3)c(O)n2n1 (stereo unspecified),11%
COc1cccc(C2=CC(c3cccc(OC)c3OC(F)F)n3nnnc3N2)c1 (stereo unspecified),-4%
c1nc(N2CCCC2)c2[nH]cnc2n1,16%
O=c1c(-c2ccc(Cl)cc2)coc2c(CN3CCOCC3)c(O)ccc12,32µM*
CCNC(=O)C1(c2ccccc2)CCCC1,5%
O=C(CSc1nnc(-c2ccccc2)o1)N1CCN(c2ccccc2)CC1,25µM*
CCOC(=O)CN1C(=O)NC2NC(=O)NC21 (stereo unspecified),4%
Cn1cc(S(=O)(=O)N2CCN(Cc3ccccc3)CC2)c(=O)n(C)c1=O,4%
COC(=O)C1(C)C=CC2(CCCCC2)N1C(C)=O (stereo unspecified),25%
O=C1NCCCC1C(=O)NCCN1C(=O)CCC1=O (stereo unspecified),3%
COC(=O)CCCC[C@@H]1SC[C@@H]2NC(=O)N[C@@H]21,-14%
Cc1ccc(-c2ccc(=O)n(CC(=O)NCCCN3CCCCC3)n2)cc1,?
Cc1ccc2c(C(=O)CN3CCSCC3)c(C)[nH]c2c1,8%
Cc1onc(-c2ccccc2Cl)c1C(=O)N1CCCCC1C(=O)O (stereo unspecified),13%
CCN1CCN(C(=O)c2cc3sccc3n2CC(=O)c2ccccc2)CC1,-6%
CCOC(=O)N1CCC(N2C(=O)c3ccccc3C2Nc2ccc3c(c2)OCCO3)CC1 (stereo unspecified),0%
COC(=O)c1ccccc1NC(=O)CN(C)S(=O)(=O)c1ccc(OC)cc1,-23%
CCCCN(C(=O)NC(=O)Nc1cccc(C)c1C)S(C)(=O)=O,-3%

The results go on:
molecule	HSD17B inhib
CCCC(=O)Nc1cccc2c1CCCC2	1%
O=c1[nH]c2c(s1)C(c1ccccc1)C1C3CCC(C3)C1S2 (stereo unspecified)	32µM*
CCN(CCCNC(=O)C1CCC(=O)N1Cc1ccc(C)cc1)c1cccc(C)c1 (stereo unspecified)	-7%
O=C(c1cccc(F)c1)N1CCc2ccccc2C1	8%
C=CCNC(=O)c1cnc2n(c1=O)CCS2	-10%
Cc1ccc(C2c3c(-c4ccccc4O)n[nH]c3C(=O)N2Cc2ccncc2)cc1 (stereo unspecified)	-12%
O=C(CSC1=NS(=O)(=O)c2ccccc21)Nc1ccccc1	-8%
CCn1c(SCC(=O)NCc2ccco2)nc2cccnc21	11%
CN(C)c1nc(OCCOC(=O)c2ccccc2)nc(N(C)C)n1	0%
COc1ccc2cc1Oc1ccc(cc1)C[C@@H]1c3c(cc(OC)c4c3Oc3cc5c(cc3O4)CCN[C@H]5C2)CCN1C	12%[11.4 µM]
CC(Nc1ncnc2nc[nH]c12)c1ccccc1 (stereo unspecified)	32µM*
CO[C@H]1COC(=O)[C@H](C)NC(=O)C/C=C\[C@@H](C)[C@H](OC)COC(=O)[C@@H](OCc2ccccc2)/C=C\[C@@H]1C	7%[11.4 µM]
CC(=O)C1C(=O)C=C(c2ccco2)CC1c1ccccc1 (stereo unspecified)	-10%
O=C(O)c1cccnc1SCC(=O)N1CCCCCC1	5%
COc1ccc(-c2nn(-c3ccccc3)cc2C(=O)O)cc1	-14%
O=C(Nc1cccc(Cl)c1)N(Cc1nc2ccccc2c(=O)[nH]1)C1CCCC1	1%
O=C(NCS(=O)(=O)c1ccccc1)c1ccccc1	1%
O=C(c1cccc(F)c1)N1CCCC(C(=O)N2CCCC2)C1 (stereo unspecified)	15%
COc1ccc(C(=O)Nn2c(SCC(=O)NCc3ccco3)nc3ccccc3c2=O)cc1	32µM*
O=C(NCc1ccncc1)C(F)(F)C(F)(F)C(=O)NCc1ccncc1	2%
COc1ccccc1N1CCN(CCCNC(=O)Nc2ccccc2C)CC1	0%
CCc1nnc(NC(=O)C2CCCN(c3nc4ccccc4s3)C2)s1 (stereo unspecified)	9%
CCN(Cc1cc2cc(OC)ccc2[nH]c1=O)C(=O)c1ccncc1	25µM*
Cc1noc(C)c1C(=O)NCCCN1CCCC1=O	2%
N#CCSc1nc(-c2ccccc2)cs1	0%
Cc1ccc(S(=O)(=O)Oc2cc(S(=O)(=O)O)cc3cc(S(=O)(=O)O)cc(N)c23)cc1	-2%[11.4 µM]
CCOc1ccc(C2C(C(=O)NC)=C(C)Nc3nc4ccccc4n32)cc1OC (stereo unspecified)	-3%
CCCCOC(=O)Nc1nnc(-c2ccccc2OC)s1	10µM*
CC(C(=O)N1CCOCC1)(c1ccccc1)c1ccccc1	4%
CCOC(=O)N1CCN(CC(=O)Nc2cc(OCC)ccc2OCC)CC1	-3%
COc1ccc(-c2ccc(S(=O)(=O)N3CCOCC3)cc2)cc1	25µM*
Nc1c(C(=O)NC2CCCCC2)c2nc3ccccc3nc2n1/N=C/c1ccco1	?
O=C(CCc1nc2ccccc2c(=O)[nH]1)OCC(=O)N1CCN(S(=O)(=O)c2ccccc2)CC1	-6%
Cc1ccccc1C(=O)Nc1cccc(NC(=O)Cn2cnc3c(=O)n(C)c(=O)n(C)c32)c1	-3%
CN(CC(=O)NC1CCCCC1)S(=O)(=O)c1ccc(Br)s1	2%
Cc1ccnc(NC(=O)CCC(=O)N(CC(=O)NC2CCCCC2)CC2CCCO2)c1 (stereo unspecified)	-8%
COc1cccc(OCC(O)CO)c1 (stereo unspecified)	-1%
O=C(O)/C(Cc1ccnc2ccccc12)=N\O	-2%[11.4 µM]
COCCn1c(SCC(=O)Nc2cc(C)cc(C)c2)nnc1C(C)C	3%
O=C(c1ccc2c(=O)n(Cc3ccc4c(c3)OCO4)c(=S)[nH]c2c1)N1CCCCC1	14%
Cc1noc(NS(=O)(=O)c2ccc(NC(=O)CSc3nc4c(cc3C#N)CCC4)cc2)c1C	15%
O=C(CCC(=O)N(CC(=O)NC1CCCCC1)Cc1ccco1)Nc1nccs1	14%
CCCCN(C(=O)NC(=O)Nc1ccccc1OC)S(C)(=O)=O	10%
Cc1ccc(S(=O)(=O)N2CCN(S(=O)(=O)N3CCCCC3)CC2)cc1	4%
COc1ccccc1Nc1nc(N)nc(CN(C)C2CCCCC2)n1	1%
CCNC(=O)COc1ccc(Br)cc1Cl	4%
CC(=O)N1CCN=C1SCc1ccccc1Cl	1%
CC1(C)Cc2c(c(=S)nc(-c3ccccc3)n2CCOCCO)CO1	1%
CSc1ccc(Cl)c(C(=O)NCc2ccco2)c1	-10%
CCC(=O)n1nc(-c2cccnc2)nc1NCc1ccc(OC)cc1	5%
Clc1ccc(C=NC23CN4CN(CN(C4)C2)C3)cc1	10%
Cc1ccc(-c2c(C#N)c(N)nc3c2CCCCCC3)o1	20µM*
O=C(C1CCN(Cc2ccc(F)cc2)CC1)N(CCO)Cc1ccccc1	-2%
O=C(NC1CC1)C1CCN(c2ccc(S(=O)(=O)N3CCOCC3)cc2Cl)CC1	1%
COc1ccc(OCCn2c(NC(=O)c3ccco3)nc3ccccc32)cc1	67%[activator]
COc1ccc(NC(=O)CNCCC2=CCCCC2)cc1	-3%
Cc1ccc(S(=O)(=O)N2CCN(C(=O)c3cc(=O)[nH]c4ccccc34)CC2)c(C)c1	20µM*
O=C(c1noc2c1CCCC2)N1CCN(C(c2ccccc2)c2ccccc2)CC1	-3%
CCN(CC)CCCC(C)n1c(-c2ccccc2)nc2c(NCc3ccccc3)nc(C)nc21 (stereo unspecified)	25µM*
N#Cc1nc(Cc2cccc3ccccc23)oc1NCCN1CCCCC1	-5%

Pulled one by one from the entries so far:
molecule	HSD17B inhib
COc1ccccc1Nc1nc(N)nc(CN(C)C2CCCCC2)n1	1%
CCCCN(C(=O)NC(=O)Nc1ccccc1OC)S(C)(=O)=O	10%
CCN(CC)CCCC(C)n1c(-c2ccccc2)nc2c(NCc3ccccc3)nc(C)nc21 (stereo unspecified)	25µM*
Cc1noc(NS(=O)(=O)c2ccc(NC(=O)CSc3nc4c(cc3C#N)CCC4)cc2)c1C	15%
Cc1ccc(-c2c(C#N)c(N)nc3c2CCCCCC3)o1	20µM*

The results go on.
molecule	HSD17B inhib
CCOC(=O)c1nnn(-c2nonc2-n2cccc2)c1C	16%
COc1cccc(C2CC(=O)Nc3cc(OC)c(OC)c(OC)c32)c1OC (stereo unspecified)	2%
O=C(CSc1nccc2ccccc12)N1CCN(c2ccccn2)CC1	-5%
CCN(CC(=O)Nc1ccc2c(c1)OCCO2)C(=O)c1cccc(S(=O)(=O)N2CCOCC2)c1	10%
CC1CC(c2ccccc2)n2nc(NC(=O)c3cccs3)nc2N1 (stereo unspecified)	0%
O=C1c2cccnc2C(O)N1Cc1ccc(F)cc1 (stereo unspecified)	6%

Not all compounds are listed; rates above refer to the full screens.
